Source: PubChem BioAssay
ClpP mod: qHTS Assay for Activators of ClpP. ATP-dependent Clp protease proteolytic subunit (Bacillus subtilis (strain 168)), P80244. purified B. subtilis ClpP, FRET peptide cleavage, 20 min. Potency, µM (series often up to 57.5 µM), for the others: top-dose activity change, negative = active. 1.9% of 340,000 active; active = well fitted falling curve with a large enough effect; inconclusive = small, poorly fitted or top-dose-only effect; inactive = no such curve, though single readings can be large or run the other way; note: potency is the fitted concentration of half-maximal effect; the source files actives as falling curves though it sought activators and does not explain the sign; nearly all actives have a fitted effect of over 65% in size; many hits overshoot -100%
Target sequence (P80244 whole entry, looked up): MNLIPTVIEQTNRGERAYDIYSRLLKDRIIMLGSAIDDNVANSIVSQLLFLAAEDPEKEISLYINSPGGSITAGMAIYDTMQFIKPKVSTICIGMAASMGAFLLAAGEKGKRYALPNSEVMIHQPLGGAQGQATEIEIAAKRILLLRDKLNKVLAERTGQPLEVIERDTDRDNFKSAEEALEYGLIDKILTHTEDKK
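FRET quenching reversal measured ClpP activation: 10 microg/mL B. subtilis ClpP at pH 8 with the FRET-FV decapeptide, read at 430 nm after 320 nm excitation. The 20-min minus 0-min signal was scaled between DMSO/no-enzyme wells and ADEP (5.8 microM final).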
D2 PAM: Beta-Arrestin HTS for Positive Allosteric Modulators of the Human D2 Dopamine Receptor: Potentiators; D(2) dopamine receptor (Homo sapiens), P14416; DiscoveRx D2 beta-arrestin cells, luminescence, 90 min; 100% = 57 uM dopamine signal; potentiation, % (concentration not given with the values); 0.23% of 360,000 active; AID 624464, 2012; active = potentiation of 50% or more; inconclusive = 30% to 50%; inactive = 30% or less;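 note: compound concentration not given in the record; tested on top of an EC20 dose of dopamine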
Target sequence (P14416 whole entry, looked up): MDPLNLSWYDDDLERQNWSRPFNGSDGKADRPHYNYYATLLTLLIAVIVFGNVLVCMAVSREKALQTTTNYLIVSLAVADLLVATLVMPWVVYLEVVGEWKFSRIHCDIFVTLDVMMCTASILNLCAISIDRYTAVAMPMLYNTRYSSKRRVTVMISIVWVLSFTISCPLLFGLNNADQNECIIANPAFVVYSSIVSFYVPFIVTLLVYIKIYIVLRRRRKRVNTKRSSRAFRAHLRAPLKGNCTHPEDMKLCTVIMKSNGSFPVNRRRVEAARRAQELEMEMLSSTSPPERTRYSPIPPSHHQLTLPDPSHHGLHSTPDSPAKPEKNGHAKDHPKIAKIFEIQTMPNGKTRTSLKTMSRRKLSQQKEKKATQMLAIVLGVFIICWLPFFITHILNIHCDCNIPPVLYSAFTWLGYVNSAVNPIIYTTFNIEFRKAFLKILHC
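PathHunter beta-arrestin assay in DiscoveRx D2 cells. Compounds were added with an EC20 of dopamine (50 nM final) for 90 min at 37 deg C. Luminescence was read 1 h after detection reagent, with 57 uM dopamine as the EC100 control.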
Starred values were filed as active, the others as inactive; ? = inconclusive. Some of the compounds tested (hit frequency here may not be typical).

structure	ClpP mod	D2 PAM
O=CNc1cc(-c2cccc(F)c2)cn2c(-c3ccc(F)cc3)cnc12	?	-10.8
CC1(C)CC(=O)C2=C(C1)NC(=O)CC2	-2.1%	-4.6
Cc1ccc(-c2cnc(C(O)c3cc(F)cc(Cl)c3)[nH]2)cc1 (centres undefined)	1.8%	-5.3
CCc1nc2c(OCC=C(C)C)cccn2c1N(C)C(=O)c1ccc(OC)cc1	0.4%	-9.6
N#CC(=C1C=CC(=NO)C(Cl)=C1)c1ccccc1	0.4%	-9.6
Cc1ccc(Cc2c(-c3cccc(Cl)c3)nc3c4ccccc4ccn23)cc1	5.4%	-7.6
CN1NC(c2ccccc2)NN(C)C1=O	-2.0%	-18.8
CCCS(=O)(=O)NC(=O)C1(C)CCN(C(=O)c2cc(C)n(C(C)(C)C)n2)C1 (centres undefined)	-3.0%	-9.4
NC(=O)c1cccc(-c2ccnc3c2CC(C(=O)Nc2ccccc2)O3)c1 (centres undefined)	-1.6%	-2.4
CC1(C(=O)NCc2ccccc2Br)CCN1Cc1ccc2ccccc2c1 (centres undefined)	-0.7%	-11.6
N#Cc1ccc(-c2nc3ccc(Cl)cn3c2Cc2ccccc2C(F)(F)F)cc1	4.6%	-2.3
N#CC1=C(Nc2ccccc2Cl)SC(c2ccncc2)NC1=O (centres undefined)	1.5%	-7.3
CCCNC(=O)c1cc(C2CCCCN2S(=O)(=O)c2ccc(F)cc2F)on1 (centres undefined)	2.3%	-3.0
CCNC(=O)C1(C)CCCN(C(=O)c2cccc(C)c2C)C1 (centres undefined)	-0.5%	-1.3
Cn1c(Nc2ccc(F)cc2)nc2cc(-c3ccsc3)sc2c1=O	-19.8%	-13.4
COc1ccc(F)cc1-c1cc(C(=O)NCc2cccc(Cl)c2)[nH]n1	-3.6%	-17.6
CCC(C)C(CO)NC(=O)/C=C/[C@H]1O[C@@H](n2cnc3c(NC(=O)c4ccccc4)ncnc32)[C@H](O)[C@@H]1O (some centres undefined)	-1.9%	-7.2
CCc1nc2c(OCCOc3ccccc3)cccn2c1N(C)C(=O)c1cccs1	-1.6%	-9.2
CCOC(=O)C1(C)CCCN(C(=O)c2cccc(C#N)c2)C1 (centres undefined)	-0.9%	-5.1
N#Cc1ccc(-c2nc3c4ccccc4ccn3c2Cc2cccc(Cl)c2)cc1	4.7%	-6.0
COc1cccc(C(C)(O)c2nc(-c3cccc(C#N)c3)cs2)c1 (centres undefined)	0.5%	-4.2
CC1(C(=O)NCCC#N)CCN1C(=O)C1(c2ccccc2)CCCC1 (centres undefined)	-0.8%	-0.9
COc1cccc(OC2(C)CCN(Cc3cccn3-c3nccs3)C2)c1 (centres undefined)	-5.8%	-25.9
CC(C)(C)S(=O)N1Cc2cc(C(=O)O)nc(-c3cccc(-c4cc5ccccc5o4)c3)c2[C@H]1CCO (some centres undefined)	-1.5%	-3.4
CC(=O)c1cccc(NC(=O)C2Cc3c(-c4ccccc4Oc4ccccc4)ccnc3O2)c1 (centres undefined)	-5.1%	-2.4
C=CCN(CC=C)Cc1cc(=O)oc2cc(C)c(Cl)cc12	-3.1%	-3.3
OC[C@@H]1CN(Cc2ccccc2)C[C@H](n2cnc3c(N4CCOCC4)ncnc32)O1	-0.4%	-14.4
Cc1ccc(S(=O)(=O)N2[C@H](c3ccccc3)CC(=O)[C@@H]3CN(S(=O)(=O)c4ccccc4)[C@H](c4ccccc4)C[C@@H]32)cc1	-2.0%	-4.8
Cc1onc(-c2c(F)cccc2Cl)c1C(=O)Oc1ccccc1	-2.6%	3.4
COc1cc(/C=C/CN2CCC(C(=O)NC(c3ccc(F)cc3)c3ccc4ccccc4n3)CC2)ccc1OC(C)=O (centres undefined)	-5.0%	-24.1
CCCCNC(=O)C1(C)CCN1C(=O)c1csnn1 (centres undefined)	-0.8%	-1.7
CCCNC(=O)C1(C)CCN(C(=O)c2cccc(Cl)c2)C1 (centres undefined)	0.8%	0.5
O=C(NCc1ccccc1)c1cc(C2COCCN2C(=O)OCCF)on1 (centres undefined)	-0.4%	4.4
Cc1ccc(S(=O)(=O)NC(=O)C2(C)CCN2C(=O)C2(c3ccc(Cl)cc3)CCC2)cc1 (centres undefined)	-2.8%	-4.6
CC(=O)Nc1cccc(-c2csc(C(C)(O)c3ccc(F)c(F)c3)n2)c1 (centres undefined)	-0.8%	-3.3
CCc1nc2ccc(C(=O)N3CCN(C(=O)c4ccco4)CC3)cn2c1N(C)C(=O)COc1ccccc1	-11.0%	-4.8
CCOC(=O)Cc1ccc(Nc2nc3cc(-c4sccc4C)sc3c(=O)n2C)cc1	4.6%	1.7
Nc1ccn([C@@H]2O[C@H](C(=O)NCc3ccc4c(c3)OCO4)[C@@H](O)[C@H]2O)c(=O)n1	-1.7%	-3.0
Cc1cc(C)cc(C(O)c2ncc(-c3ccc(C(F)(F)F)cc3)[nH]2)c1 (centres undefined)	-10.2%	-7.8
COc1ccc(OC)c(NC(=O)C2(C)CCN2C(=O)C2(c3ccccc3)CCCC2)c1 (centres undefined)	-1.3%	-6.8
CCc1nc2ccc(C(=O)NCc3ccccc3OC)cn2c1N(C)C(=O)Cc1ccccc1	-3.1%	0.8
c1ccc(OCCNc2ccn3nc(-c4ccc(OCCN5CCOCC5)cc4)cc3n2)cc1	4.9%	15.1
O=C(NCc1cc(C(F)(F)F)cc(C(F)(F)F)c1)c1cc(-c2cc(F)ccc2OCC2CCCO2)n[nH]1 (centres undefined)	-4.5%	-2.5
Nc1nc2c(ncn2[C@@H]2O[C@H](CNCc3ccc(OCCCN4CCOCC4)cc3)[C@@H](O)[C@H]2O)c(=O)[nH]1	0.3%	-5.4
CCC(CC)C(=O)N(C)c1c(C)nc2c(OCC=C(C)C)cccn12	-2.8%	-11.0

Grouped by structure, the entries above with an aryl methoxy group.
structure	ClpP mod	D2 PAM
CCc1nc2c(OCC=C(C)C)cccn2c1N(C)C(=O)c1ccc(OC)cc1	0.4%	-9.6
COc1ccc(F)cc1-c1cc(C(=O)NCc2cccc(Cl)c2)[nH]n1	-3.6%	-17.6
COc1cccc(C(C)(O)c2nc(-c3cccc(C#N)c3)cs2)c1 (centres undefined)	0.5%	-4.2
COc1cccc(OC2(C)CCN(Cc3cccn3-c3nccs3)C2)c1 (centres undefined)	-5.8%	-25.9
COc1cc(/C=C/CN2CCC(C(=O)NC(c3ccc(F)cc3)c3ccc4ccccc4n3)CC2)ccc1OC(C)=O (centres undefined)	-5.0%	-24.1
COc1ccc(OC)c(NC(=O)C2(C)CCN2C(=O)C2(c3ccccc3)CCCC2)c1 (centres undefined)	-1.3%	-6.8
CCc1nc2ccc(C(=O)NCc3ccccc3OC)cn2c1N(C)C(=O)Cc1ccccc1	-3.1%	0.8

Other records:
structure	ClpP mod	D2 PAM
C(=C\c1ccccc1)/CN1CCN(C(c2cccc3ccccc23)c2nnnn2C2CCCC2)CC1 (centres undefined)	0.2%	-15.9
NC(CCc1ccccc1)c1csc(Nc2ccc(C(F)(F)F)cn2)n1 (centres undefined)	-5.6%	-8.7
COc1ccccc1N1CCN(C(=O)c2[nH]c(C(F)(F)F)nc2-c2ccccc2)CC1	-1.4%	-15.3
Cc1cc(C)c(C(O)c2ncc(-c3ccccc3C)[nH]2)c(C)c1 (centres undefined)	0.1%	-13.2
CN(C)CCNC(=O)c1cccc(-c2cnc3c(NC=O)cc(/C=C/c4ccccc4)cn23)c1	5.2%	-1.6
CC(=O)Nc1cccc(-c2ccnc3c2CC(C(=O)NCC2CC2)O3)c1 (centres undefined)	-14.0%	-6.4
CC1(C(=O)NCc2ccc(F)c(F)c2)Cc2c(-c3cccc(C(F)(F)F)c3)ccnc2O1 (centres undefined)	-7.0%	-2.5
CC(=O)Nc1cc(-c2ccc(C(=O)NC3CC3)cc2)cn2c(-c3cccc(C(F)(F)F)c3)cnc12	-13.6%	-13.1
CN(C)c1ccc(C=Cc2nccc3ccccc23)cc1	0.0%	-7.7
O=C(NCc1ccco1)C1Cc2c(-c3cccc(F)c3)ccnc2O1 (centres undefined)	-4.3%	-12.1
CC1(C(=O)Nc2cccc(Oc3ccccc3)c2)Cc2c(-c3ccc4c(c3)OCO4)ccnc2O1 (centres undefined)	5.0%	-5.6
CCc1nc2ccc(C(=O)NC3CCN(C)CC3)cn2c1N(C)CCC(C)C	-1.7%	-6.0
Cc1ccccc1COc1cccn2c(N(C)C(=O)CCC3CCCC3)c(C)nc12	-2.8%	-7.7
CCCNC(=O)C1(C)CCCN(C(=O)c2ccc3c(c2)CCO3)C1 (centres undefined)	-0.9%	-7.7
COc1cccc(Nc2nc(C(N)CC(C)C)cs2)n1 (centres undefined)	0.4%	-13.7
CCOc1ccccc1-c1cc(NC)ncn1	-21.1%	-8.4
Cc1c(C(=O)NCCC#N)sc(=O)n1Cc1ccc(F)cc1	-3.2%	-4.4
CCCNC(=O)C1(C)CCCN(Cc2ccc(C(=O)OCC)o2)C1 (centres undefined)	0.9%	-2.5
COc1ccc(F)cc1-c1cc(NC=O)c2ncc(-c3cccc(C(=O)N(C)C)c3)n2c1	-19.7%	-9.0
OC(c1ccccc1)c1ncc(-c2cccc(F)c2)[nH]1 (centres undefined)	0.2%	-6.6
CC(C)c1ccccc1NC(=O)Nc1nnc([C@@H]2C[C@H](O)[C@@H](CO)O2)s1	3.2%	-7.0
COc1ccccc1CNc1nc(NCc2cccs2)nc2ccsc12	-12.3%	-6.4
CSc1ccc(CN2CCC(C)(Oc3ccccc3F)C2)cc1 (centres undefined)	-0.4%	-10.0
O=C(/C=C/[C@H]1O[C@@H](n2ccc(=O)[nH]c2=O)[C@H](O)[C@@H]1O)NC(c1ccccc1)c1ccccc1	1.2%	-5.7
Cc1nc2ccc(C(=O)N3CCN(c4ccccc4)CC3)cn2c1N(C)C(=O)CCc1ccccc1	-0.2%	-6.3
CC(C)(C)Cc1c(-c2cccc(Cl)c2)nc2ccc(Cl)cn12	-10.0%	-17.5
CC(C)C[C@H]1CN([C@@H](Cc2ccc(O)cc2)CN2CCC[C@@H]2CN2C(=S)NC[C@@H]2Cc2ccccc2)C(=S)N1CCc1ccccc1	-2.7%	-11.8
COc1ccccc1Cc1c(C(C)(C)C)nc2c3ccccc3ccn12	-17.1%	-17.8
Fc1cccc(Cc2c(C3CCCCC3)nc3ccc(Cl)cn23)c1	-24.8%	-0.1
Cc1cccc(S(=O)(=O)NC(=O)C2(C)CCN2C(=O)CCc2ccccc2)c1 (centres undefined)	-0.5%	-0.9
Cc1cc(O)ccc1Nc1cc(-c2cccc(N)c2)ncn1	1.5%	-7.1
CC(=O)NC(c1ccc(F)c(F)c1)c1nc(-c2ccncc2)cs1 (centres undefined)	-4.1%	-8.1
N#Cc1ccc(Nc2nc(NCc3ccccc3)nc3ccsc23)cc1	4.5%	-1.3
Nc1ncnc2c1ncn2[C@@H]1O[C@H](C(=O)NCC2CCN(Cc3ccccc3)CC2)[C@@H](O)[C@H]1O	1.3%	-5.3
COc1cc(-c2cnc3c(NC(C)=O)cc(-c4ccc(N5CCN(C)CC5)cc4)cn23)cc(OC)c1OC	-15.5%	-4.6
CC1(C(=O)NS(=O)(=O)C2CC2)CCCN(C(=O)c2cccc(C(F)(F)F)c2)C1 (centres undefined)	0.9%	-2.6
O=NN(CC(=O)NN=CC=Cc1ccccc1)CC(=O)NN=CC=Cc1ccccc1	3.4%	3.5
COc1cc2c(cc1OC)C(c1c(Cl)cccc1Cl)=NCC2	-2.7%	4.8
COc1cccc(-c2cnc3c(NC(C)=O)cc(-c4cc(F)ccc4OC)cn23)c1	-4.6%	-10.6
COc1ccccc1CNC(=O)C1(C)CCN1C(=O)Cc1ccc(-c2ccccc2)cc1 (centres undefined)	-2.4%	-6.3
CCc1nc2ccc(C(=O)Nc3cccc(NS(C)(=O)=O)c3)cn2c1N(C)Cc1nccn1C	-1.6%	3.1
Cc1cccc(-c2cnc(C(O)c3ccc(Cl)cc3C)[nH]2)c1 (centres undefined)	1.5%	-8.1
OC(c1ccc(Cl)c(F)c1)c1ncc(-c2cccc3ccccc23)[nH]1 (centres undefined)	?	-13.9
CN1C(C)(C)CC(O)(C(=O)O)CC1(C)C	-3.2%	-2.5
CCOC(=O)C1(C)CCCN1C(=O)c1ccc(OC)cc1 (centres undefined)	0.1%	-2.6
COCCNC(=O)C1(C)CCCN(C(=O)c2ccc(-c3ccccc3)cc2)C1 (centres undefined)	-1.9%	-5.7
